From PubChem
Biofilm kill mix = clotrimazole potentiators killing C. albicans biofilm, primary screen, 4-compound mixtures. C. albicans biofilm persisters + clotrimazole, fluorescence viability; primary screen in compound mixtures of four per well. inhibition, % at 7.6 µM. hit rate 0.02% among 120,000. AID 1242, 2008;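 active means inhibition above 30.3% in the primary screen of four-compound pools, then above 30% when the compound was retested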;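 further: compounds exposed to preformed 24 h biofilms for 48 h; the number belongs to the whole pool; some results filed as inactive read as strong as hits; inactives centre near 12; 0% = biofilm with clotrimazole alone and 100% = kill control; retested singly at about 60 µM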
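System: C. albicans CAF4-2 wild-type biofilms; Medium: RPMI/MOPS medium, pH 7.0; Reagent: Clotrimazole, 50 µg/mL; Times: biofilm formation 24 h, compound exposure 48 h, 37 °C; Detection: 2-h Alamar Blue fluorescence, 535/590 nm excitation/emission; Evaluation: percent inhibition of biofilm viability.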
Numbers without * were called inactive. The list is partial. The share of hits here may be higher or lower than overall.

How did CC(C)(C)c1ccc(C(=O)O)c(C(=O)c2ccccc2)c1 do in these assays?
Biofilm kill mix: 6

What do the screens show for `Cc1ccsc1/C=N\NC(=O)CC(=O)NCc1ccccc1`?
Biofilm kill mix: 5

What do the screens show for `Fc1ccc(/C=N/NC2=Nc3cccc4cccc2c34)cc1`?
Biofilm kill mix: 14

How did NC(=O)c1c(NC(=O)Cn2nc(C(=O)O)c3ccccc3c2=O)sc2c1CCC2 do in these assays?
Biofilm kill mix: 16

What do the screens show for `CN(C)C(CNC(=O)Cc1ccc([N+](=O)[O-])cc1)c1ccccc1` (stereo unspecified)?
Biofilm kill mix: 0

Results for CC(C)(C)NC(=O)Nc1ccc(F)c(Cl)c1 ?
Biofilm kill mix: 5

How did CCOc1ccc(N2CC(C(=O)Nc3cc(C)on3)CC2=O)cc1 (stereo unspecified) do in these assays?
Biofilm kill mix: 34

How did CC(=O)Nc1ccc(C(=O)N2CC(=O)NC(=O)C2)cc1 do in these assays?
Biofilm kill mix: 24

Results for Cc1csc(NC(=O)CSc2nnc(CCNC(=O)c3cccs3)n2C)n1 ?
Biofilm kill mix: 14

Results for Cc1ccccc1NC(=O)c1c2c(nc3ccccc13)CCC2 ?
Biofilm kill mix: 10

How did CCOC(=O)Cc1csc(NC(=O)Nc2ccc(C)cc2)n1 do in these assays?
Biofilm kill mix: 7

How did COc1ccccc1NC(=S)NC(C)=O do in these assays?
Biofilm kill mix: 16

How did COc1ccc(CCN(C)CC(O)c2ccccc2)cc1OC (stereo unspecified) do in these assays?
Biofilm kill mix: 5

Results for Cn1c(=O)c2c(nc(N/N=C/c3ccc(OC(=O)c4ccco4)cc3)n2Cc2ccccc2Cl)n(C)c1=O ?
Biofilm kill mix: 7

What do the screens show for `COc1ccc(C(C)=O)cc1CSc1nc2nc(C)cc(C)n2n1`?
Biofilm kill mix: 5

Results for Cc1ccc(-c2c[n+](CC(=O)N3c4ccccc4Sc4ccccc43)c3n2CCC3)cc1 ?
Biofilm kill mix: 11

How did CC1=NN(S(=O)(=O)c2ccc(Cl)cc2Cl)C(=O)c2ccccc2O1 do in these assays?
Biofilm kill mix: 18

How did CS(=O)(=O)N1CCN(S(=O)(=O)c2ccccc2[N+](=O)[O-])CC1 do in these assays?
Biofilm kill mix: 31

Results for CNC(=O)c1nc(C)c(C2(C)CC(c3cccc([N+](=O)[O-])c3)=NO2)s1 (stereo unspecified) ?
Biofilm kill mix: 17

Results for Cc1cc(OC(=O)c2c(F)cc(F)cc2F)nc(C)n1 ?
Biofilm kill mix: 13

How did O=C(Cn1nnc2ccccc2c1=O)N1CCOCC1 do in these assays?
Biofilm kill mix: 2

How did Cc1ccc(O)c(C(=O)c2cnn(C(=O)COc3ccccc3C#N)c2)c1 do in these assays?
Biofilm kill mix: 17

What do the screens show for `COCCSc1ccccc1C(=O)Nc1cc(C)cc(C)c1`?
Biofilm kill mix: 11

How did Cc1ccc(-n2c(CNc3ccc(F)cc3)nnc2SCC(=O)N2CCOCC2)cc1 do in these assays?
Biofilm kill mix: 14

How did COCCN(C(=O)CSc1nnc(C)n1Cc1ccccc1)c1c(N)n(Cc2ccccc2)c(=O)[nH]c1=O do in these assays?
Biofilm kill mix: -8

Results for Brc1ccc(C2=Nn3c(Cn4nnc5ccccc54)nnc3SC2)cc1 ?
Biofilm kill mix: 16

Results for O=C(O)c1cccc(NC(=S)NC(NC(=O)c2cccc([N+](=O)[O-])c2)C(Cl)(Cl)Cl)c1 (stereo unspecified) ?
Biofilm kill mix: 26

Results for CCOC(=O)/C(C#N)=C\C1=C(N2CCCC2)CC(C)(C)OC1 ?
Biofilm kill mix: 10

Results for Cc1ccc(NC(=O)C(C)NC(=O)OCc2ccccc2)cc1C (stereo unspecified) ?
Biofilm kill mix: 11

What do the screens show for `Cc1ccc2[nH]c(-c3cccc(F)c3)cc(=O)c2c1`?
Biofilm kill mix: 22

Results for CCOC(=O)C1NN=C(C(=O)c2ccccc2)C1c1ccccc1 (stereo unspecified) ?
Biofilm kill mix: 8

What do the screens show for `COc1cccc(-n2c(CN3CCN(Cc4ccccc4)CC3)nc3ccc([N+](=O)[O-])cc3c2=O)c1`?
Biofilm kill mix: 6

How did Cc1cnc(NC(=O)c2cncc(Br)c2)s1 do in these assays?
Biofilm kill mix: 6

What do the screens show for `CC(C)=NNc1nc2c(c(=O)[nH]c(=O)n2C)n1CCc1ccccc1`?
Biofilm kill mix: 15

How did O=C(NC(=S)NCCN1CCOCC1)c1ccc(Cl)cc1 do in these assays?
Biofilm kill mix: 7

Results for COc1ncnc2c1oc1nc(C)c3c(c12)CC(C)(C)OC3 ?
Biofilm kill mix: 1

Results for COc1ccc(/C=C2\SC(=O)N(CC(=O)NNC(=O)c3ccccc3O)C2=O)cc1 ?
Biofilm kill mix: 10

Results for CCOc1ccc(N/C(N)=N/c2nc(CSc3nnnn3-c3ccccc3)cc(=O)[nH]2)cc1 ?
Biofilm kill mix: 16

What do the screens show for `Cc1ccc(-n2cc(CN3CCNC(=O)CC3)c(-c3ccc(F)cc3)n2)cc1`?
Biofilm kill mix: 20

How did N#Cc1c(-c2ccc(C(F)(F)F)cc2)cc(-c2ccccc2)[nH]c1=S do in these assays?
Biofilm kill mix: 13

What do the screens show for `COc1ccc2[nH]cc(CCNC(=S)NC3CCCC3)c2c1`?
Biofilm kill mix: 5

How did O=C(CN1CCc2ccccc21)NN1CC(=O)N(c2ccccc2)CC1=O do in these assays?
Biofilm kill mix: 15

Results for Cc1ccc2nc(C3CCCN3Cc3nc(CCC(C)C)no3)[nH]c2c1 (stereo unspecified) ?
Biofilm kill mix: 12

Results for Cc1cc([N+](=O)[O-])nn1CC(=O)Nc1cc(F)ccc1F ?
Biofilm kill mix: 4

How did CN(C)S(=O)(=O)c1cccc(-c2csc(N/N=C/c3ccco3)n2)c1 do in these assays?
Biofilm kill mix: 10

How did C=CCc1cccc(/C=N/NC(=O)CCC(=O)Nc2ccc(F)cc2)c1O do in these assays?
Biofilm kill mix: 9

How did Cc1cc(=O)oc(C)c1C(=O)OCC(=O)c1ccc(Br)cc1 do in these assays?
Biofilm kill mix: 16

What do the screens show for `CCC(CC)C(=O)Nc1nnc(SCC(=O)NC(C)(C)C)s1`?
Biofilm kill mix: 7

How did Cc1cc(Cl)ccc1OCC(=O)N/N=C1\CC2C=CCC12 (stereo unspecified) do in these assays?
Biofilm kill mix: 13

What do the screens show for `COc1cc(/C=N/NC(=O)c2nonc2N)cc(OC)c1OC`?
Biofilm kill mix: 15

What do the screens show for `c1ccc(-c2ccccc2OCCOCCN2CCCCC2)cc1`?
Biofilm kill mix: 14

What do the screens show for `O=c1oc2ccccc2c(N2CCC(c3ccccc3)CC2)c1[N+](=O)[O-]`?
Biofilm kill mix: 7

How did Cc1cc(C(=O)NCC(=O)OCC(=O)Nc2ccc(OC(F)F)cc2)ccc1[N+](=O)[O-] do in these assays?
Biofilm kill mix: 8

What do the screens show for `CCOc1ccccc1Nc1nnc(SCC(=O)Nc2ccc3[nH]c(=O)[nH]c3c2)s1`?
Biofilm kill mix: 29

What do the screens show for `Cc1c(NC(=O)Nc2cccs2)cccc1[N+](=O)[O-]`?
Biofilm kill mix: -3

Results for COc1cc(C(C)=O)ccc1Oc1ncnc2c1cnn2-c1cccc(Cl)c1 ?
Biofilm kill mix: 13

Results for CCc1ccc(Nc2ncnc3nc[nH]c23)cc1 ?
Biofilm kill mix: 26

What do the screens show for `O=C(Nc1cccc(Cl)c1)Nc1cc(S(=O)(=O)N2CCCCC2)ccc1Cl`?
Biofilm kill mix: 14

Results for Fc1cccc(NC(=S)NCCc2ccccc2)c1 ?
Biofilm kill mix: 13

What do the screens show for `O=C(NC(=O)c1c(F)cccc1F)O/N=C1\CCCc2occc21`?
Biofilm kill mix: 30

How did COc1ccc(OC)c(NC(=O)Cn2c(C)nc3ccccc3c2=O)c1 do in these assays?
Biofilm kill mix: 14

How did Cc1cc(C(=O)COC(=O)c2cccn2C)c(C)n1Cc1ccco1 do in these assays?
Biofilm kill mix: 5

Results for C#CCOCCOCCOCCNc1nc(N2CCN(C(=O)C([C@@H](C)CC)n3cc(C(N)Cc4ccc(O)cc4)nn3)CC2)nc(N2CCN(C(=O)[C@H](CCC(=O)O)n3cc(C(N)[C@H](C)CC)nn3)CC2)n1 (stereo partly specified) ?
Biofilm kill mix: 18

Results for CN(c1ccc(OCC(=O)OCC(=O)Nc2cccc([N+](=O)[O-])c2)cc1)S(=O)(=O)c1ccc(F)cc1 ?
Biofilm kill mix: 8

What do the screens show for `CC[C@H](C)[C@H](NC(N)=O)C(=O)Nc1ccc(NC(C)=O)cc1`?
Biofilm kill mix: 25

What do the screens show for `COc1ccc(NC(=O)C(=O)N2N=C3CCCCC3C2(O)C(F)(F)F)cc1` (stereo unspecified)?
Biofilm kill mix: 24

How did COc1ccc(C(=O)OCC(=O)Nc2ccc([N+](=O)[O-])cc2OC)c(O)c1 do in these assays?
Biofilm kill mix: -3

What do the screens show for `O=C(NCc1cccnc1)c1ccc(CN2CCc3ccccc3C2)cc1`?
Biofilm kill mix: 7

Results for COc1ccc(C(NC(=O)c2c(F)c(F)c(F)c(F)c2F)c2ccccc2)cc1 (stereo unspecified) ?
Biofilm kill mix: 14

What do the screens show for `CC1=C(C#N)C(c2cccnc2)C2=C(N1)c1ccccc1C2=O` (stereo unspecified)?
Biofilm kill mix: 12

What do the screens show for `COc1ccc(OC2C(=O)N(c3cc(C)ccc3C)C2c2ccc(OC)c(OC)c2)cc1` (stereo unspecified)?
Biofilm kill mix: 7

How did CC(C)NC(=O)CC(=O)NN=C1CCCCC1 do in these assays?
Biofilm kill mix: 6

How did COc1cc(NC(=O)COC(=O)/C=C/c2ccccc2Cl)cc(OC)c1 do in these assays?
Biofilm kill mix: 10

What do the screens show for `NCCCC[C@@H]1NC(=O)[C@H](CCC(=O)O)NC(=O)c2cc([N+](=O)[O-])cc(I)c2NCC[C@@H](C(N)=O)NC1=O`?
Biofilm kill mix: 6

What do the screens show for `Cc1cccc(C)c1NC(=O)CSc1nc(-c2ccco2)cc(C(F)(F)F)n1`?
Biofilm kill mix: 10

What do the screens show for `CCOc1c(C=C(C#N)C#N)c2ccccc2n1CC`?
Biofilm kill mix: 17

What do the screens show for `CCCCN(C)CCn1c(=S)[nH]c2cc(OCC)c(OCC)cc2c1=O`?
Biofilm kill mix: 20

What do the screens show for `O=C(/C=C/c1ccccc1)N(Cc1cccs1)C1CCS(=O)(=O)C1` (stereo unspecified)?
Biofilm kill mix: 12

Results for COC(=O)C1=C(C)Nc2sc(C(N)=O)c(N)c2C1c1ccncc1 (stereo unspecified) ?
Biofilm kill mix: 6

Results for Cc1cc(=O)oc2c1c(C)nn2-c1ccc(Cl)cc1 ?
Biofilm kill mix: 17

What do the screens show for `O=C(Nc1ccc(Cl)cc1)C(c1ccccc1)N1CCOCC1` (stereo unspecified)?
Biofilm kill mix: 14

What do the screens show for `CCOC(=O)C1(CCCc2ccccc2)CCN(C(=O)CCc2cnn(C)c2)CC1`?
Biofilm kill mix: -6

Results for Cc1cc(C)n2ncc(C(=O)NC3CCCCC3)c2n1 ?
Biofilm kill mix: 6

Results for Cc1ccc(CONC(=O)c2ccc(OC(F)F)cc2)cc1 ?
Biofilm kill mix: 9

What do the screens show for `CCOC(=O)c1c(NC(=O)CSc2nnnn2C)sc(C(=O)N(C)C)c1C`?
Biofilm kill mix: 2

What do the screens show for `COc1ccc(NC(=O)C2CCC(C(C)(C)C)CC2)cc1S(=O)(=O)N1CCCCC1` (stereo unspecified)?
Biofilm kill mix: 12

How did CC[C@H](C)[C@H](NC(N)=O)C(=O)Nc1ccc(OC)c(Cl)c1 do in these assays?
Biofilm kill mix: 5

What do the screens show for `Cc1cccc(-n2cc(CNCCc3nc(C)cc(C)n3)c(-c3cccc(F)c3)n2)c1`?
Biofilm kill mix: 9

What do the screens show for `Cc1nn(Cc2ccc(Cl)cc2Cl)c(C)c1NC(=O)CCl`?
Biofilm kill mix: -5

What do the screens show for `Cc1ccc(NC(=O)C2=CCN(S(=O)(=O)c3ccc(F)cc3)CC2)c(C)c1`?
Biofilm kill mix: 5

Results for COc1ccccc1CNN ?
Biofilm kill mix: 23

Arranged by number of heavy atoms (falling): part of the list above
What do the screens show for `Cc1cccc(-n2cc(CNCCc3nc(C)cc(C)n3)c(-c3cccc(F)c3)n2)c1`?
Biofilm kill mix: 9

What do the screens show for `CCOC(=O)C1(CCCc2ccccc2)CCN(C(=O)CCc2cnn(C)c2)CC1`?
Biofilm kill mix: -6

What do the screens show for `CCOC(=O)c1c(NC(=O)CSc2nnnn2C)sc(C(=O)N(C)C)c1C`?
Biofilm kill mix: 2

What do the screens show for `CCCCN(C)CCn1c(=S)[nH]c2cc(OCC)c(OCC)cc2c1=O`?
Biofilm kill mix: 20

Results for COC(=O)C1=C(C)Nc2sc(C(N)=O)c(N)c2C1c1ccncc1 (stereo unspecified) ?
Biofilm kill mix: 6

What do the screens show for `O=C(Nc1ccc(Cl)cc1)C(c1ccccc1)N1CCOCC1` (stereo unspecified)?
Biofilm kill mix: 14

Results for Cc1ccc(CONC(=O)c2ccc(OC(F)F)cc2)cc1 ?
Biofilm kill mix: 9

How did CC[C@H](C)[C@H](NC(N)=O)C(=O)Nc1ccc(OC)c(Cl)c1 do in these assays?
Biofilm kill mix: 5

What do the screens show for `CCOc1c(C=C(C#N)C#N)c2ccccc2n1CC`?
Biofilm kill mix: 17

Results for Cc1cc(=O)oc2c1c(C)nn2-c1ccc(Cl)cc1 ?
Biofilm kill mix: 17

Results for COc1ccccc1CNN ?
Biofilm kill mix: 23
